Source: PubChem
hNpr1 antagonist – Natriuretic polypeptide receptor (hNpr1) antagonism - Primary qHTS; HEK293 hNpr1 GloSensor cGMP, ANP-stimulated luminescence; Potency, µM (highest dose often 46.3 µM), for the others: top-dose activity change, negative = inhibition, hits mostly inhibitors; actives 1.6% (n = 76,000); Atrial natriuretic peptide receptor 1 (Homo sapiens), P16066; active = well fitted inhibition curve with a large enough effect; inconclusive = small, poorly fitted or top-dose-only effect; inactive = no such curve, though single readings can be large or run the other way;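 also: nearly all actives have a fitted effect of over 60% in size; nearly all hits also lower the signal before the agonist is added; a reference antagonist and vehicle were the controls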
Target sequence (P16066 whole entry, looked up): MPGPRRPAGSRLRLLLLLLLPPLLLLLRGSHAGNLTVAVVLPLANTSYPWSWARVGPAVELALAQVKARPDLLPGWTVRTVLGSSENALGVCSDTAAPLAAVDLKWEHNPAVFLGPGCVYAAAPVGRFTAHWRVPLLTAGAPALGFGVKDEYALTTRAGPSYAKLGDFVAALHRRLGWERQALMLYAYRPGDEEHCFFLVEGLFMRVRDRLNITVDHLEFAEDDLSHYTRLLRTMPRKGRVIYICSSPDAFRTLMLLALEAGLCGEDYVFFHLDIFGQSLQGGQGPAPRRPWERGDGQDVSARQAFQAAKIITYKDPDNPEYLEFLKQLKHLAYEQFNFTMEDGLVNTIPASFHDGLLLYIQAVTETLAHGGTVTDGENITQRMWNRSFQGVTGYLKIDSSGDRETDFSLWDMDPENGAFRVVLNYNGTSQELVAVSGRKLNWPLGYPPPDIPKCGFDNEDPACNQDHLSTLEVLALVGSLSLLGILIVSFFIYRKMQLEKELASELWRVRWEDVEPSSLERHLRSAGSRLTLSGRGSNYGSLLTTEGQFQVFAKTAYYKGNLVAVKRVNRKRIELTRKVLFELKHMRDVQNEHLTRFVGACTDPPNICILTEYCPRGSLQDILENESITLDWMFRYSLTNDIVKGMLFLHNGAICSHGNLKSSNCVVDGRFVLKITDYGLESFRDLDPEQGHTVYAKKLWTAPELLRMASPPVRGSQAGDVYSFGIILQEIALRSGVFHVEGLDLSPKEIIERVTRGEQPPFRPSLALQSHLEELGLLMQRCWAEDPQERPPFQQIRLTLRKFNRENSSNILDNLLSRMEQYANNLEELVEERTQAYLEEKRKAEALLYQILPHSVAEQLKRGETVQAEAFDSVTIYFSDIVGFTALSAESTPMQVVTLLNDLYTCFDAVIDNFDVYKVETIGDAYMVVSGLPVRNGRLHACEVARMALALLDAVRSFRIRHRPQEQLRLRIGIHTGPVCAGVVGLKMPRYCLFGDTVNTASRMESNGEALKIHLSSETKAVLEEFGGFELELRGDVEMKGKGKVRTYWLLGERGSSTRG
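Compound pre-incubated 30 min at room temperature on GloSensor-loaded HEK293 cells stably carrying hNpr1 and the pGS-40F cGMP biosensor. Stimulation uses hNppA at 0.1 nM final; luminescence is taken at baseline and 20 min post-agonist.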
* marks the source's active call; other numbers are inactive results; ? = inconclusive; [ ] = dose if it differs, or a comment. % is scaled to controls: 0 for no effect and ±100 for the full control effect; potency is read from the fitted curve at half-maximal effect. These rows are one share of the data; count on the stated rates, not on these rows.

SMILES	hNpr1 antagonist
Cn1cccc1C(=O)N1CCCN(Cc2ccncc2)C(c2ccccc2)CC(=O)NCC1 (configuration not stated)	-4%
Cc1nc([C@H]2CCN(Cc3cn(C)c4ccccc34)C[C@H]2NC(=O)C2CC2)n[nH]1	7%
COc1ccc(C(=O)NC2CCCc3c2[nH]c2c(Cl)cccc32)cc1OC (configuration not stated)	-26%
CC[C@H]1CN(C(=O)c2ccnc(Cl)c2)CC[C@H]1CC(=O)NCc1ccc(OC)cc1	6%[70.6 µM]
CN(Cc1cc(-c2cccs2)n[nH]1)C[C@@H]1CCCN2CCCC[C@H]12	2%
COC1CN(c2cccc(F)c2)C12CCN(C(=O)NCCc1ccccc1)CC2 (configuration not stated)	3%
COc1cncc(-c2cn(C)c(=O)n3cc(CNc4ccccc4)nc23)c1	-9%[70.6 µM]
CCOc1ccc(CN(CCOC)C(=O)C2CCCN(C(N)=O)C2)cc1 (configuration not stated)	5%
COc1ccc(C2Cn3cnc(C(=O)N4CCC(C(=O)NCc5ccc(F)cc5)CC4)c3CO2)cc1 (configuration not stated)	-1%
Cc1ccc(C(=O)NCc2nnc3cc(-c4nc(C(C)C)no4)ccn23)cc1F	-11%
CN(CCC1CCCCO1)C(=O)c1coc(COc2cccc(F)c2)n1 (configuration not stated)	4%
CCOC(=O)C1(Cc2cccc(OC)c2)CCCNC1 (configuration not stated)	10%
Cc1nc([C@H]2CCN(Cc3ccc(C)c(C)c3)C[C@H]2NC(=O)C2CC2)n[nH]1	-1%
Cc1nn2c(c1-c1ccccc1OCc1ccccc1)N(Cc1nccn1C)CCC2	-25%[70.6 µM]
CCn1ncc(N2CCC(NC(=O)c3cccs3)CC2)cc1=O	-1%
O=C(Cc1cccc(Cl)c1)N1CC(c2nc(Cc3ccccc3)no2)C1	3%
O=C(Cn1nc2c(cc1=O)CCCCC2)Nc1nnc(C2CCCO2)s1 (configuration not stated)	0%
O=C(CCc1ccccc1)N1CCC(c2noc(-c3cccnc3)n2)C1 (configuration not stated)	-1%
CN1CCC(N2C[C@H](O)C[C@H]2c2nc(Cc3ccccc3)no2)CC1	5%[70.6 µM]
O=C(c1ccccc1Cl)N1CC(c2nc(CCc3ccccc3)no2)C1	1%
O=C(CCC1CCCN(S(=O)(=O)c2ccccc2)C1)NC1CC1 (configuration not stated)	7%
O=C(Cc1c[nH]c2ccccc12)NCC(=O)N1CCCCCNC(=O)CC1c1ccccc1 (configuration not stated)	-1%
c1cc2nc(C3CCCCN3)[nH]c2cn1 (configuration not stated)	24%[70.6 µM]
CC1(C)CNC(=O)c2nc(CCSCc3ccco3)[nH]c2C1	-1%
Cc1cn2nc(C(=O)NCc3ccc(C(C)C)cc3)cc2c(=O)[nH]1	11%

Arranged by molecular weight (smallest number first): part of the list above.
SMILES	hNpr1 antagonist
Cc1nc([C@H]2CCN(Cc3ccc(C)c(C)c3)C[C@H]2NC(=O)C2CC2)n[nH]1	-1%
O=C(Cc1cccc(Cl)c1)N1CC(c2nc(Cc3ccccc3)no2)C1	3%
CC[C@H]1CN(C(=O)c2ccnc(Cl)c2)CC[C@H]1CC(=O)NCc1ccc(OC)cc1	6%[70.6 µM]

More compounds follow:
SMILES	hNpr1 antagonist
C[S+](=O)([O-])c1cccc(-c2ncc3c(n2)OCCN(Cc2ccccc2)C3=O)c1	1%[70.6 µM]
COc1cc(Cl)ccc1OCc1nc2c(n1Cc1ccccc1)C(=O)N(CC1CCOCC1)CCN2	-6%
CC(C)CNC[C@H]1O[C@H](Cc2cc(CN3CCOCC3)on2)CC[C@@H]1O	0%[70.6 µM]
O=C(C[C@@H]1CCNC[C@@H]1Cc1cc(CC2CCCCC2)on1)NCc1ccccc1	14µM*
O=C(Nc1cccc(F)c1)N1CCC(O)(c2csc(CN3CCc4ccccc4C3)n2)CC1	-18%
O=C1COc2ccc(-c3ccsc3)nc2CN1Cc1ccccc1F	1%[70.6 µM]
C#CCNC(=O)[C@@H]1Cc2cn(Cc3c(C)noc3C)c3cccc(c23)[C@H](CC(C)C)N1	-29%[70.6 µM]
COc1cccc(CN2CCn3c(nnc3[C@@H]3C[C@@H](O)CN3C)C2)c1OC	1%
Cc1ccc(C2NC(=O)N(CC(=O)Nc3ccc(Br)cc3F)C3=C2C(=O)OC3)cc1 (configuration not stated)	-22%
COc1ccc(N2CCN(C(=O)c3cc4c(s3)CN(C3CCCC3)C4)CC2)cc1	0%
Cc1ccc(C)c(CN2C[C@@H]3C(=O)N(C)C(=O)[C@@H]3C2)c1	-1%
CCCc1noc(-c2cn(C3CCN(C(=O)c4ccc(OC)cc4)CC3)nn2)n1	-24%
CCNc1cc(N2CCC(CCC(=O)Nc3cccc(OC)c3)CC2)ncn1	?
Cc1ccc(-c2nc(-c3nnn4c3COC(c3ccc(Cl)cc3)C4)no2)s1 (configuration not stated)	1%
C[C@]1(CO)[C@H]2Cc3sc(NC(=O)C4CCCCC4)nc3[C@@H](CC(=O)N3CCOCC3)[C@]2(C)CC[C@H]1O	-2%
O=C1CO[C@H]2CCN(Cc3ccc4c(c3)CCO4)CC[C@@H]2N1Cc1ccccc1	-21%[70.6 µM]
O=C(c1ccsc1)N1CCCN(c2cc(-c3ccc(Cl)cc3)[nH]n2)CC1	-18%
CC(=O)Nc1ccc(CNC2(Cc3cc(-c4ccccn4)on3)COC2)cc1	3%[70.6 µM]
CCOC(=O)c1ccccc1NC(=O)Cn1cccc1-c1nc(-c2ccc(F)cc2)no1	3%
Cc1noc(-c2cccn3c(CNC(=O)c4ccccc4C)nnc23)n1	1%
COc1ccc(CN2C(=O)COC[C@@H]2[C@H](O)c2ccc(NC(C)=O)cc2)cc1	-5%[70.6 µM]
O=C1CCC2(CCNCC2)CCN1Cc1ccccc1	8%
CCCCS(=O)(=O)N1CCc2nn(CCOC)c(=O)n2CC1	3%
CCCc1cc(CN(C)C(=O)C2CC(=O)N(c3ccc(C(C)C)cc3)C2)[nH]n1 (configuration not stated)	0%
O=C(C[C@@H]1O[C@H](CNS(=O)(=O)c2ccccc2)[C@@H](O)[C@H]1O)Nc1ccccc1	-1%[70.6 µM]

Four of these compounds, set out differently:
CC(C)CNC[C@H]1O[C@H](Cc2cc(CN3CCOCC3)on2)CC[C@@H]1O
  hNpr1 antagonist = 0%[70.6 µM]

O=C(C[C@@H]1CCNC[C@@H]1Cc1cc(CC2CCCCC2)on1)NCc1ccccc1
  hNpr1 antagonist = 14µM*

O=C(Nc1cccc(F)c1)N1CCC(O)(c2csc(CN3CCc4ccccc4C3)n2)CC1
  hNpr1 antagonist = -18%

O=C1COc2ccc(-c3ccsc3)nc2CN1Cc1ccccc1F
  hNpr1 antagonist = 1%[70.6 µM]

Three of the entries above in order of their number in hNpr1 antagonist, highest first.
molecule,hNpr1 antagonist
CCOC(=O)c1ccccc1NC(=O)Cn1cccc1-c1nc(-c2ccc(F)cc2)no1,3%
CCCc1cc(CN(C)C(=O)C2CC(=O)N(c3ccc(C(C)C)cc3)C2)[nH]n1 (configuration not stated),0%
O=C(Nc1cccc(F)c1)N1CCC(O)(c2csc(CN3CCc4ccccc4C3)n2)CC1,-18%

New compounds follow
SMILES	hNpr1 antagonist
O=C(C1CCCC1)N1CCC(c2nc(-c3ccc4nc[nH]c4c3)no2)CC1	-15%
O=C1CC(c2noc(-c3ccccc3F)n2)CN1C1CCCCC1 (configuration not stated)	3%
O=C(c1ccccc1F)N1CCc2nc(-c3ccccc3)nc(-c3ccc(Cl)cc3)c2C1	1%
COc1ccc(-c2cn3c(n2)CO[C@@H](CNC(=O)C2CCCC2)C3)cc1	-4%[70.6 µM]
CC(C)CC(=O)N1CCCCCC1CN1CCC(C)CC1 (configuration not stated)	-20%
COc1ccc(-c2ccnc(-c3nnc(C)n3Cc3ccccc3)c2)cc1OC	1%[70.6 µM]
CC(C)Cc1nc(NC(=O)Cn2nc3c(cc2=O)CCCCC3)n[nH]1	4%
Cc1cc(C(=O)NCC2Cn3cccc3CN2Cc2ccccc2)n[nH]1 (configuration not stated)	1%
COc1ccc(C(=O)NCCn2ccn3nc(-c4ccc(C)cc4C)cc3c2=O)c(C)c1	?
Cn1nc(C(=O)N2CC[C@@](C)(O)[C@@H](O)C2)cc1-c1cccs1	2%
Cc1cc(C)cc(NC2=N[C@H]3[C@@H](O)[C@H](O)C[C@H](C(=O)NCc4cccs4)[C@H]3S2)c1	5%[70.6 µM]
O=C(CCc1nc2ccccc2[nH]1)N1CCC(c2noc(-c3ccccn3)n2)C1 (configuration not stated)	3%
CN(c1ccccc1)c1cc(=O)c2ccnc(NC3CCOCC3)c2o1	4%[70.6 µM]
COc1ccc(Cl)cc1-c1ncc2c(n1)OCCN(c1ccccc1)C2=O	5%[70.6 µM]
COc1ccc(CNC(=O)C2CCN(c3cc(C(F)(F)F)nc(C)n3)CC2)cc1	0%
C[C@H](c1ccccc1)N1C(=O)[C@@H]2CN(C(=O)CC(C)(C)C)CCN2C1=O	-6%[70.6 µM]
O=C(COc1ccc(F)cc1)N1CCCN(c2cc(-c3ccc(Br)cc3)[nH]n2)CC1	?
CCc1nc(-c2c3n(c(=O)n(Cc4cccc(C#N)c4)c2=O)CCCC3)no1	7%
Cc1cc(C(=O)N2CCC3(CC2)NCCc2c3[nH]c3ccccc23)n(C)n1	1%
O=C(c1ccsc1)N1CCC2(CC1)NC(=O)N(Cc1ccccc1)C2=O	-10%
CCC(=O)N1CCC(OC2CCN(C(=O)CC3CCCCC3)CC2)CC1	-1%
CCn1cc(S(=O)(=O)N2CCC(N3C(=O)[C@H](OC)[C@@H]3c3ccncc3)CC2)cn1	2%
CCC(=O)N1CCC(N2C(=O)C(O)C23CCCCC3)CC1 (configuration not stated)	1%
COc1ccc(C(=O)NCc2nnc3ccc(-c4ccc(Cl)cc4)nn23)c(OC)c1	?
Cc1nc(C)c(C(=O)N2CCC(Cc3noc(-c4ccccc4)n3)C2)s1 (configuration not stated)	?

Additional records follow:
SMILES	hNpr1 antagonist
O=C(c1cnc2n[nH]c(-c3ccccc3)c2n1)N1CCOCC1	-11%[70.6 µM]
O=C1CC(c2ccccc2)N(C(=O)Nc2ccccc2F)CCCCCN1 (configuration not stated)	-8%
O=C(c1n[nH]c2ccccc12)N1CCCC1c1nc(CCOCC2CCCC2)no1 (configuration not stated)	1%
Cc1c(-c2ccc(F)cc2)[nH]c2ccc(CNC(=O)c3n[nH]c4c3CCCC4)cc12	16µM*
O=C1CCN(S(=O)(=O)c2ccccc2)CCCC(C(=O)NCCN2CCCC2)CCN1 (configuration not stated)	-3%
COc1cc(S(=O)(=O)N2CCc3c(nc[nH]c3=O)C2)c(OC)cc1C	0%
CCC1=C(C(=O)OC)C(c2ccccc2F)N2C(CC(=O)NCC3CC3)=CSC2=N1 (configuration not stated)	-10%
OCC#Cc1csc(CN2CCCN(C3CCCCC3)CC2)c1	0%
CCCNC(=O)N1CCC(Cn2c(C)cnc2C2CCOCC2)CC1	0%
COCC1CN(C(=O)NC2CCCCC2)CC12CCNCC2 (configuration not stated)	-5%
O=c1[nH]c(N2CCOCC2)nc2c1CCN(Cc1ccsc1)CC2	1%
CC(C)N1C[C@H](O)C[C@H]1c1nnc2n1CCN(C(=O)c1ccccn1)CC2	-1%
CC(=O)N[C@H]1CC[C@]2(C)CC[C@@H]([C@H](C)C(=O)NC(C)(C)C)[C@H](O)[C@H]2[C@@H]1C	7%[70.6 µM]
CN(Cc1ccc(F)cc1)S(=O)(=O)c1cccs1	6%[70.6 µM]
CC(C)N1CCC2(CC1)CN(C(=O)c1ccccn1)Cc1ccccc1O2	-5%
O=C(c1n[nH]c2ccccc12)N1CC(Oc2ccccc2-c2nc(-c3ccccc3)no2)C1	-2%
O=C(CN1C(=O)C(c2ccccc2)=NC12CCCC2)NCc1ccccc1	-8%
COc1ccc(-c2ccc3onc(C)c3n2)cc1OC	-2%[70.6 µM]
O=C1O[C@@H]2CN(S(=O)(=O)N3CCCC3)C[C@@H]2N1CCCc1ccc(F)cc1	2%
CCn1nccc1C(=O)NCCC1CCN(C(=O)Nc2ccc(F)cc2)CC1	-1%
O=C(Nc1ccc([C@@H](O)[C@H]2COCC(=O)N2Cc2ccc(F)cc2)cc1)c1cnccn1	4%
COCCOC1CCOC2(CCN(C(=O)c3ccc(OC)c(OC)c3)CC2)C1 (configuration not stated)	0%
CCCN(CC1CCOC1)C(=O)Nc1ccc(C)c(F)c1 (configuration not stated)	1%
CC(C)N1CCN(C(=O)C2Cn3cccc3C(=O)N2Cc2cccnc2)CC1 (configuration not stated)	1%
Cc1ccc(-c2ccc3nnc(CNC(=O)c4ccn[nH]4)n3n2)cc1C	3%

Carrying on.
SMILES	hNpr1 antagonist
CN(C)C(C(=O)N1CCN(Cc2ccccc2C#N)CC1)c1ccc(F)cc1 (configuration not stated)	2%
Cc1cccc(C(=O)N2CCC3(CC2)CC(N(C2CC2)S(C)(=O)=O)CCO3)c1 (configuration not stated)	3%
COc1cccc(C(=O)N2CCC(N3C[C@H](O)C[C@H]3C(=O)N3CCC(C)CC3)CC2)c1	-2%
O=C(Nc1cc(F)c(F)c(F)c1)N1CCC(Oc2ncccc2C(=O)N2CCCCC2)C1 (configuration not stated)	-1%
CN1c2cccnc2CN(C(=O)Nc2cccc(F)c2)CC[C@H]1CO	1%[70.6 µM]
O=C(c1ccccc1)N1CCC2(CC1)N=C(c1ccc(Cl)cc1)NO2	?
Cc1cc(NC(=O)c2ccc(CN3CC[C@H](O)C3)cc2)ccc1F	10µM*
Cc1nc2cccnc2n1CC1CCCN(S(=O)(=O)c2ccc(F)c(F)c2)C1 (configuration not stated)	2%
Nc1nc(CC(=O)N2CCCC(CNC(=O)c3ccc(F)cc3)C2)cc(=O)[nH]1 (configuration not stated)	-1%
COCC1CCN(CC2(O)CCCN(Cc3cccc(F)c3F)C2=O)CC1 (configuration not stated)	2%
O=C1CCC2(CCN1CC1CC1)CCN(S(=O)(=O)c1ccccc1F)CC2	4%
CCCc1noc(-c2cccn3c(CNC(=O)C4CCCCC4)nnc23)n1	-3%
